Assay outcomes (PubChem)
Polio RdRp inh: inhibitors of poliovirus RNA polymerase binding and polymerization; poliovirus polymerase elongation, fluorescence polarization; hits give low values; P03300; % elongation, % (compound at 16.7 µg/mL); 0.66% of 150,000 active; in the data active = % elongation below about 90%; note: some results filed as inactive read as strong as hits
Target sequence (P03300 1749-2209 limits assumed): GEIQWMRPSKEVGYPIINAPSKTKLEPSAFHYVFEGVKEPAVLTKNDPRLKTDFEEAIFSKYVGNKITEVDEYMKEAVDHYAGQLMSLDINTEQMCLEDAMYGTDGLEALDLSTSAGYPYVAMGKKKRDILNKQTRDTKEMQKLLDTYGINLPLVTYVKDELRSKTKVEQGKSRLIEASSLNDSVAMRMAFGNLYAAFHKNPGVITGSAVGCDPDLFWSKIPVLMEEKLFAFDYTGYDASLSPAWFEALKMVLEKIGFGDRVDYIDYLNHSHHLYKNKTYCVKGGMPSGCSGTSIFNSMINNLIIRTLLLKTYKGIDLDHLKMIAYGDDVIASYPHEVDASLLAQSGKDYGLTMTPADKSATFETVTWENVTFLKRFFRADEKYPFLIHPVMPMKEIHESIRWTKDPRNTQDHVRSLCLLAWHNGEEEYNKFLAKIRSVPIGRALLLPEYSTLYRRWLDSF
Mtb MenB inh: blocks the Mycobacterium tuberculosis MenB enzyme; P9WNP5; MenB enzyme assay, absorbance read-out; some hits fall short of the stated cut; inhibition, %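 (about 12 µg/mL by stock and volumes)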; 0.43% of 100,000 active; AID 540299;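 active = mean of two replicates above 30%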;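 note: 0% = no compound and 100% = wells with inactive enzyme; the first replicate is given; strong numbers were not always called active; inactives centre near -10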
MbtI inh: MbtI salicylate synthase inhibition. P9WFX0. inhibition, %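 (about 17 µg/mL by stock and volumes)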. AID 493033. purified MbtI enzyme, fluorescence intensity read-out. 0.89% of 100,000 active;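 active = above 50% in both replicates, above 80% if mildly self-fluorescent; inactive = the rest, strongly fluorescent compounds included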;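 note: 0% = mean of negative and 100% = mean of positive controls; one replicate is shown; some compounds called inactive have numbers as strong as hits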
Target sequence (P9WFX0 whole entry, looked up): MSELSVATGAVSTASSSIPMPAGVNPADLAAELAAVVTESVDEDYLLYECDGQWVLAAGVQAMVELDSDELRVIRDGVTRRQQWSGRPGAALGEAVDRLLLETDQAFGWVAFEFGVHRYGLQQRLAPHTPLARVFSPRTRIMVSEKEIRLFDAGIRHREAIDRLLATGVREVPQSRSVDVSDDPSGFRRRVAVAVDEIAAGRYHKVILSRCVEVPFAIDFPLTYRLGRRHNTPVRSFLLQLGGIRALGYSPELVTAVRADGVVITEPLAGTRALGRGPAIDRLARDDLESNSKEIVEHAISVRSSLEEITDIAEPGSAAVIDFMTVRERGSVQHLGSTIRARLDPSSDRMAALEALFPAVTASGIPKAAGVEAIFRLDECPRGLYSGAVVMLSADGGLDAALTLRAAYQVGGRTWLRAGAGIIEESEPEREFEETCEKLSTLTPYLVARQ
Polio RdRp inh intensity: recorded beside Polio RdRp inh, whose call it bears; % elongation; measured here: total intensity read-out; formula for this scale not given here;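 total fluorescence in place of polarization; lower means less elongation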
Numbers without * were called inactive; . = not tested or not shown. Not a hit list; overall some 1.7% were active at least once.

compound,Polio RdRp inh intensity,Mtb MenB inh,MbtI inh,Polio RdRp inh
O=C(Cn1cnc2c(nc3n2CCCCC3)c1=O)NC1CCCCCC1,100,-18,7,102
O=C(Nc1ccccc1I)c1ccnc(-n2cnnc2)c1,99,4,-5,99
O=C(N/N=C/c1ccco1)c1nn(Cc2ccccc2)c(=O)c2ccccc12,105,-21,0,105
Cc1cc(S(=O)(=O)N2CCN(C)CC2)c(C)cc1Cl,100,-23,6,100
CCCN(CCC)C(=O)c1cc(S(=O)(=O)N2CCc3ccccc32)cn1C,99,-4,-4,102
OCCCNc1c2c(nc3ccccc13)CCCC2,103,12,10,100
COC(=O)C1=CN(c2cc(C)cc(C)c2)C=C(C(=O)OC)C1c1ccc(OC)c(O)c1,99,3,21,101
COc1ccc(-c2cc(NC(=O)Nc3ccccc3)n(-c3ccccc3)n2)cc1,107,-1,.,104
O=C(Nc1c[nH]c(=O)[nH]c1=O)c1ccco1,99,-35,12,101
CN(C)c1ccc(NC(=O)CSc2nnc(C3CC3)n2N)cc1,105,-3,9,102
CNC(=S)NCC(c1ccco1)N1CCCCC1 (configuration not stated),107,3,-3,99
O=C(Cc1ccccc1)N1CCC(c2nc3ccccc3[nH]2)CC1,104,-21,0,105
CS(=O)(=O)n1cc(C(=O)C(F)F)c2ccccc21,94,13,6,99
COc1ccc2c(c1)CCC1C2CCC2(C)C(=O)CCC12 (configuration not stated),107,10,-11,108
CCNC(=S)N1CCN(CCN=CC2=C(O)CC(C)(C)CC2=O)CC1,102,9,2,100
O=C(c1cc(-c2ccccc2)on1)N1CCN(c2ccccc2)CC1,103,7,-17,100
OCc1ccccc1N=Cc1cccnc1,107,.,-7,103
O=C(Nc1ccccc1)NC1(C(=O)N2CCN(C(=O)c3ccco3)CC2)CCCCC1,106,31,4,102
CCOC(=O)Cn1c(-c2ccccn2)nc2ccccc21,101,-3,89,100
CCOC(=O)c1sc(N)c(C#N)c1CSc1nnc(C2CC2)n1N,126,-22,1,126
CCc1nnsc1C(=O)Nc1ccc(S(N)(=O)=O)cc1,112,-17,-1,103
CC1(C)CC(NC(=S)NC(=O)c2ccco2)CC(C)(C)N1,101,-17,-1,99
CNc1c(=O)[nH]c(O)c2ccccc12,100,-28,0,101
CCC(C)(C)NC(=O)/C=C/c1ccc(OC(F)F)c(OC)c1,96,0,18,102
CCN(CC)S(=O)(=O)N1CCCC(C(=O)NCc2ccc(C)cc2)C1 (configuration not stated),101,2,-11,103
Cc1ccc(C(=O)OCC2COc3ccccc3O2)cc1 (configuration not stated),97,.,-14,102
N#Cc1ccc(S(=O)(=O)Nc2ccccc2Sc2nc3ccc(Cl)cc3s2)cc1,104,-5,-1,99
O=C(OCC1CC(c2ccccn2)=NO1)c1ccc(Br)cc1 (configuration not stated),103,5,3,105
CC1CCCCN1CCCNC(=O)Cc1ccc(NC2=NC3CS(=O)(=O)CC3S2)cc1 (configuration not stated),104,-11,-3,100
Cc1occc1C(=O)C(C#N)=C1SCCCS1,99,2,4,102
CC(C)N(CCC#N)C(=O)Nc1ccc(C(C)(C)C)cc1,104,1,-3,100
Cc1ccc(N2C(=O)C(C)N=C2N(C)C2CCCCC2)cc1 (configuration not stated),102,-16,-7,101
Nc1ccc(N2CCNCC2)cc1,77,10,1,96
CC1Cc2ccccc2N1C(=O)NC1CC(=O)N(c2ccccc2)C1 (configuration not stated),103,-15,-11,101
O/N=C/c1ccc(-c2cc(C(F)(F)F)cc(C(F)(F)F)c2)o1,75,-18,-26,97
Cc1ccc2c(c1)N(CCC(=O)N1CCC3(CC1)OCCO3)C(=O)C(C)O2 (configuration not stated),101,-19,-4,100
CCOC(=O)C1=C(NC(C)C)C(=O)N(N(C)C)C1,110,-12,.,105
CC(Cc1c[nH]c2ccccc12)NC=O (configuration not stated),100,-28,-16,104
CCOC(=O)c1c(C#N)c(SC)nc2c1CCCC2,102,9,-26,100
Cc1ccc(Nc2nc3nonc3n3cnnc23)cc1Cl,104,-16,-29,100
Cc1ccc(CNC(=O)CCC(=O)O)cc1,103,0,-4,103
CC(C)CC(O)(CC(C)C)C(=O)NNc1ccccc1,101,-68,-24,101
CC(=NCc1ccncc1)C1=C(O)c2ccccc2C1=O,101,9,4,101
O=C1N=c2ccccc2=C1c1c(O)n(-c2cccc(Br)c2)[nH]c1=O,110,9,.,97
CC(C)Cn1c(-c2ccc(F)cc2)n[nH]c1=S,102,-23,47,102
COc1ccc(N2CCN(C(=O)c3cccc4ccccc34)CC2)cc1,102,-56,-5,106
CCS(=O)(=O)Nc1cc(F)ccc1C,101,8,-9,101
CSCCC(=O)Nc1ccc(-c2ccccc2)cc1,104,-1,-24,100
Cc1ccc(/C=C/C(=O)N(C2=NC(C)CS2)c2ccc(Cl)cc2)o1 (configuration not stated),106,1,2,103
CS/C(N)=N/N=C(\C)c1ccc(Br)cc1,99,-20,14,100
COc1ccc(-c2noc(CSc3nnc(CCc4ccccc4)n3C)n2)cc1OC,107,-18,-9,103
Cc1ccc(CNC(=O)CN2NS(=O)(=O)c3ccccc3C2=O)cc1,103,-8,91*,100
CN(C)N=Nc1ccc(-c2cn(Cc3ccccc3)cn2)cc1,103,-3,37,100
COc1ccccc1C(=O)N(CC(=O)Nc1ccccc1C(F)(F)F)Cc1ccco1,103,-2,-4,102
CCCC(=O)O[C@]1(C(=O)CO)CCC2[C@@H]3CCC4=CC(=O)CC[C@]4(C)C3[C@@H](O)C[C@@]21C (some centres not stated),103,-2,-14,101
O=C(CN1C(=O)C2CC=CCC2C1=O)N1CCN(S(=O)(=O)c2ccc3c(c2)OCCCO3)CC1 (configuration not stated),107,-13,-16,105
O=C(CN1CCCc2ccccc21)NCCc1ccc(F)cc1,112,7,-87,108
O=C(Cn1c(=O)c2sccc2n(CC(=O)Nc2ccccc2)c1=O)NCc1ccco1,102,-17,-5,99
O=C(NCc1cccnc1)c1cc2ccccc2oc1=O,103,-14,.,98
O=C1NCC2=C1C(c1ccccc1O)Nc1ccccc1N2 (configuration not stated),97,-2,-6,101

4 compounds drawn at random from the list so far, as already listed:
compound,Polio RdRp inh intensity,Mtb MenB inh,MbtI inh,Polio RdRp inh
O=C1NCC2=C1C(c1ccccc1O)Nc1ccccc1N2 (configuration not stated),97,-2,-6,101
CN(C)N=Nc1ccc(-c2cn(Cc3ccccc3)cn2)cc1,103,-3,37,100
CCCC(=O)O[C@]1(C(=O)CO)CCC2[C@@H]3CCC4=CC(=O)CC[C@]4(C)C3[C@@H](O)C[C@@]21C (some centres not stated),103,-2,-14,101
Cc1ccc(CNC(=O)CN2NS(=O)(=O)c3ccccc3C2=O)cc1,103,-8,91*,100

Continuation.
compound,Polio RdRp inh intensity,Mtb MenB inh,MbtI inh,Polio RdRp inh
O=C(CCSc1ccc2ccccc2n1)NCCc1ccccc1,97,-25,-4,103
O=S1(=O)CCC(N2CCN(c3ncnc4sccc34)CC2)C1 (configuration not stated),108,1,9,103
COc1cc(/C=N/NC(N)=O)ccc1OC(=O)c1cccs1,93,-7,-10,97
CCc1ccc(NC(=O)N(Cc2ccco2)C(C)c2cccs2)cc1 (configuration not stated),102,-10,5,98
CCNC(=O)c1ccc2nc(N3CCCCC3)sc2c1,104,-7,-1,103
CCc1ccc(NC(=O)c2ccc(NC(=O)CCS(=O)(=O)c3cccs3)cc2)cc1,102,-37,11,101
C(=N\Nc1ccc(N2CCOCC2)nn1)/C1=C(N2CCOCC2)C(=C/c2ccccc2)/CC1,105,-111,19,101
O=c1[nH]c2ccccc2c(=O)n1NC(=S)NCc1ccco1,104,-21,-17,98
CN1C(=O)C(=Cc2ccco2)C(=O)N(C)C1=O,104,-21,55,103
O=C(OCc1sccc1Oc1ccccc1)c1ccc(Cl)cc1,110,-18,-7,104
Cc1n[nH]c(=S)n1Cc1ccccc1,102,7,17,99
CS(=O)(=O)c1ccccc1C(=O)Nc1cc(Cl)ccc1-n1cncn1,105,2,-4,106
c1cn2cc(CSC3CCCCC3)nc2s1,103,.,-4,101
O=C1c2ccccc2NC(c2cccc(O)c2)N1O (configuration not stated),108,-9,-4,105
CCCCN=C1NN=C(c2cc3ccccc3o2)CS1,124,-38,19,120
Clc1ccc2oc(-c3ccccc3)cc(=NCC3CCCO3)c2c1 (configuration not stated),98,-8,16,97
N#C/C(=C\c1cn(Cc2ccccc2)c2ccccc12)C(=O)NC1CC1,107,-58,-5,95
O=C(CCSCc1ccccc1Cl)NCc1ccccc1Cl,98,-13,1,98
COc1ccc(-c2cc(C)no2)cc1S(=O)(=O)N1c2ccccc2CC1C (configuration not stated),96,-38,5,102
O=c1cc(CSc2nnc(-c3cccnc3)o2)c2cc3c(cc2o1)CCC3,98,-10,8,98
C/C(=C/c1ccccc1)C(=O)Nc1ccc(S(N)(=O)=O)cc1,102,-12,-10,99
CCS(=O)(=O)N1CCN(S(=O)(=O)c2ccc(C(C)C)cc2)CC1,103,6,-11,102
Cc1ccc(N2C(=O)c3ccccc3C2C(=O)c2ccc(C)cc2O)cc1 (configuration not stated),97,3,6,103
Cc1cc(C(=O)CSc2n[nH]c(-c3cccs3)n2)c(C)n1Cc1ccco1,98,-15,6,102
CCCS(=O)(=O)NCc1ccc(C(=O)O)cc1,98,-38,9,96
O=C1N=c2ccccc2=C1c1c(O)[nH]c2ccc(Cl)cc12,107,-26,5,102
O=C(COC(=O)C1(c2ccccc2F)CCCC1)c1cccs1,105,.,-8,102
Cc1ccc(C2CC(=O)N3CN(CCc4ccccc4)CSC3=C2C#N)cc1 (configuration not stated),102,-12,34,104
COc1ccccc1/C=C/C(=O)Nc1nc(N)n(-c2ccccc2)n1,103,-26,-2,102
CCn1c(SCC(=O)NCc2ccccc2)nc2c([nH]c3ccccc32)c1=O,100,-1,23,99
CCOc1ccc2ccccc2c1C=Nc1ccccc1,96,-3,.,93
COc1ccc(-c2noc(CN(C)C(=O)N3c4ccccc4Sc4ccccc43)n2)cc1OC,104,-17,5,100
NC(=S)NC1CC2CC1C1C=CCC21 (configuration not stated),103,-10,-11,101
CC(=O)Oc1ccccc1-n1c(C)nc(=O)c(-c2ccccc2)c1C,101,.,-15,103
Clc1ccc(C(c2ccccc2Cl)C(Cl)Cl)cc1 (configuration not stated),100,-16,-8,101
CNC(=O)NC(=O)C(C)Sc1nc2ccc(C)cc2[nH]1 (configuration not stated),104,4,-3,102
O=c1[nH]cnc2cccc(F)c12,102,-2,-6,100
COC(=O)c1ccn(-c2nc(-c3cccs3)cc(C(F)(F)F)n2)n1,102,-30,79,105
CCOC(=O)N1CCN(C(=O)CN(C)S(=O)(=O)c2ccc3c(c2)c(=O)n(C)c(=O)n3C)CC1,107,-24,12,103
Cc1nc(C)c(CCNC(=O)c2cccs2)s1,107,-8,11,99
COc1ccc(CC(=O)N2CCC3(CC2)N=C(c2ccc(C)cc2)C(=O)N3)cc1OC,103,0,4,98
Cc1ccc(S(=O)(=O)N(C)c2ccc(OCC(=O)Nc3ccc(N4CCN(C)CC4)cc3C)cc2)cc1,89,-20,13,100
C=CCC(C#Cc1ccccc1)N(C)C (configuration not stated),102,1,-23,102
Cc1ccc2c(=O)cc(-c3ccc(F)cc3)oc2c1,113,-12,-2,95
Cc1cc(C)nc(N2CC(=O)N(CCOc3ccc(Br)cc3)C2=O)n1,98,-14,0,101
O=C(NC(=O)c1csc(-c2ccc(C(F)(F)F)cc2Cl)n1)Nc1ccc(F)cc1,109,-4,-6,103
Cc1noc(/C=C/N2CCOCC2)c1S(=O)(=O)N1CCN(c2ccc(F)cc2)CC1,108,-5,-9,104
Cc1ccsc1C(=O)OCC(=O)c1cc2ccccc2o1,114,-30,-11,112
O=C(c1cccc(Br)c1)N1CCN(c2cnn(-c3ccccc3)c(=O)c2Cl)CC1,104,1,-14,101
CN(C)Cc1ccc(CN)cc1,103,-18,1,103
C#CC1(O)c2ccccc2CCc2ccccc21,103,10,-9,100
CP1(=O)COc2ccccc2OC1,95,-39,-6,101
Cc1ccc2oc3c(c(=O)c2c1)C(c1cccs1)N(CCN(C)C)C3=O (configuration not stated),101,-2,-2,100
N#Cc1ccc(C23CC4CC(CC(C4)C2)C3)nc1SCCN1CCCCC1,105,0,4,101
COC(=O)c1c(C)oc2ccc(O)c(CN3CCCCC3)c12,101,-15,4,101
O=C(O)c1cc(-c2cccs2)nc2ccc(Br)cc12,107,5,.,78
CCOC(=O)/C(=N\O)C1=NC(C)(C)Cc2ccccc21,101,3,-6,100
CCOc1ccc(NC(=O)CC2C(=O)NCCN2C(=O)Nc2ccccc2)cc1 (configuration not stated),100,-17,6,100
Cc1nnc(SCC(=O)NCC(F)(F)F)n1N,110,0,-4,103
COc1cc2c(cc1OC)C(C)N(c1ncnc3onc(C)c13)CC2 (configuration not stated),100,-10,15,101
Cn1c(=O)c2c(nc(SCC(=O)Nc3ccccc3F)n2Cc2ccccc2)n(C)c1=O,106,8,-1,100
